Bioassay records deposited in PubChem by ICCB-Longwood Screening Facility, Harvard Medical School.
BasE inh = BasE siderophore enzyme inhibitors, primary screen, biochemical, Acinetobacter baumannii ATCC 17978, fluorescence polarization; AID 485350, 2010; purified BasE, fluorescence polarization binding displacement; actives 0.1% (n = 84,000); inhibition, % (test concentration not listed);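 active = both replicates above 25% with normal brightness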;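 also: 0% = negative plate control signal and 100% = positive plate control signal; stock transfer was 100 nL into about 30 µL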
LANA-nucl inh = inhibitors of KSHV LANA-nucleosome binding, primary screen, biochemical, fluorescence polarization, FITC-LANA1-23, chicken nucleosomes. FITC-LANA1-23 / chicken nucleosome fluorescence polarization; hits give low values. z-score (test concentration not listed). actives 0.3% (n = 51,000). AID 720717, 2013;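 active = both repeat wells score below -2 in polarization z-score versus plate sample wells, excluding overly bright wells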;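 also: 100 nL library stock added to about 30 µL; numbers are from one replicate; some results filed as inactive read as strong as hits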
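Test system: purified chicken nucleosomes with FITC-labelled LANA N-terminal peptide (1-23); Input: 240 nM purified chicken nucleosomes (480 nM peptide binding sites), final; Medium: TEN-BT buffer, pH 7.5; Timing: 10–45 min, room temperature; Technique: fluorescence polarization, 480 nm excitation, 535 nm parallel and perpendicular emission; Replication: duplicates.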
Active calls of the source: *; · = no result given. The list is partial; count on the stated rates, not on these rows.

Under each structure: BasE inh	LANA-nucl inh
COc1ccc(N2CCN(C(=O)Cc3c(C(=O)O)n(C)c4ccccc34)CC2)cc1
 : 2.0	-1.1
CCSc1nnc(CNC(=O)c2cccc(OC)c2)n1-c1ccccc1OC
 : 1.5	-0.2
COc1ccc(Cl)cc1C(=O)Nc1nc(-c2ccc(C)o2)cs1
 : -2.7	·
Cc1nc(-c2ccc3[nH]c(=O)oc3c2)cs1
 : -0.2	·
Cc1cnc(C(=O)OCC(=O)NCC23CC4CC(CC(C4)C2)C3)cn1
 : 0.6	·
Nc1cnc(-c2ccccc2)nc1
 : -0.1	·
COc1ccccc1C(=O)NCc1ccccc1C
 : 0.9	-0.629
CN(C)CCCNCc1cccs1
 : -2.4	-0.545
CC(=O)Nc1nc(CSc2nc3ccccc3n2C)cs1
 : 2.8	·
CCCN1C(=O)c2ccccc2NC1c1cc(OC)c(OC)c(OC)c1 (stereo not given)
 : -1.0	1.41

Brought forward from above: 2 compounds; new compounds follow.
Under each structure: BasE inh	LANA-nucl inh
CC(=O)Nc1nc(CSc2nc3ccccc3n2C)cs1
 : 2.8	·
CCCN1C(=O)c2ccccc2NC1c1cc(OC)c(OC)c(OC)c1 (stereo not given)
 : -1.0	1.41
Cc1ccc(-c2ccc(C#N)c(=O)n2CC(=O)N2CCC(C(N)=O)CC2)cc1
 : -1.1	0.373
COC(=O)Cn1c(=NC(=O)CSCC(=O)NC2CCCCC2)sc2cc(OC)ccc21
 : 2.3	-0.719
CCc1nnc(NC(=O)c2c(O)c3ccccc3[nH]c2=O)s1
 : -0.6	-0.0055
O=C(NC1CCCCCC1)c1cn(-c2ccc(F)cc2)nn1
 : 0.4	0.298
CC1Cc2cc(S(=O)(=O)Nc3ccccc3N3CCN(C)CC3)ccc2N1C(=O)C1CC1 (stereo not given)
 : -1.8	0.655
CCC(=O)N(c1nnc(SCc2csc(N(C(C)=O)c3ccccc3)n2)s1)C1CC1
 : 0.1	·
N#CC(C#N)=C(N1CCOCC1)C(F)(F)F
 : 7.6	0.955
COCC(C)N=C1NN=C(c2cc(C)n(CC3COc4ccccc4O3)c2C)CS1 (stereo not given)
 : -1.8	·
CC(C)c1ccc(C(C)N)cc1 (stereo not given)
 : -2.1	·
CC1CCCN(S(=O)(=O)c2ccc(S(=O)(=O)N3CCN(C=O)CC3)cc2)C1 (stereo not given)
 : 2.3	-0.613
Cc1nc2c(-c3ccccc3)c(C)nn2c(C)c1CC(=O)NCCCN1CCCC1=O
 : -0.1	0.652
O=C(O)/C=C/C(=O)Nc1cccc(NC(=O)/C=C/C(=O)O)c1
 : 3.1	-0.458
S=C(Nc1ccccc1)N1CCc2ccccc21
 : -0.2	-0.205
O=C1c2ccccc2C(=O)N1CCc1nc(-c2cccnc2)no1
 : 6.6	-1.35
CCOc1ccc(C(=O)Cc2ccc3oc(C(=O)O)cc3c2)c(O)c1
 : 1.4	·
O=C(CN1c2ccccc2S(=O)(=O)c2ccccc21)Nc1cccnc1
 : -2.9	-0.11
O=C(O)C1Cc2[nH]cnc2C(c2ccc(F)cc2)N1 (stereo not given)
 : 1.3	-0.636
CCOC(=O)c1c(C)[nH]c(C)c1S(=O)(=O)NCC(=O)Nc1ccc(Cl)c(C(F)(F)F)c1
 : -1.6	·
CN(C)C(=O)Cn1c(-c2ccc(F)cc2)ccc(C#N)c1=O
 : -0.8	-0.429
Cc1csc(SCC(=O)N(C)Cc2ccccc2C)n1
 : -2.8	·
Cc1nc2ccccc2n1S(=O)(=O)c1cccc(C(F)(F)F)c1
 : -0.1	·
Cc1ccc(NC(=O)/C(C#N)=C/c2cn(CC(=O)NCc3ccco3)c3ccccc23)c(C)c1
 : 2.2	-0.0405
COC(=O)c1ccc(C2SCC(=O)N2CCC(C)C)cc1 (stereo not given)
 : 0.7	·
CCCC(=O)Nc1sc(C)c(C)c1C#N
 : 0.3	-0.12
N#Cc1ccc(OCC(=O)c2ccc3c(c2)OCO3)cc1
 : 3.0	·
CCc1ccc(N(Cc2cc(=O)n3ccccc3n2)C2=NC3CS(=O)(=O)CC3S2)cc1 (stereo not given)
 : 1.4	-0.768
CN1C(=O)CC(NCCc2ccc(S(N)(=O)=O)cc2)C1=O (stereo not given)
 : -1.2	-0.0865
CN1C(=O)SC(N(CC(N)=O)c2ccccc2)C1=O (stereo not given)
 : 4.2	-0.709
C=CCSc1n[nH]c(-c2ccc(C(F)(F)F)cc2)n1
 : -0.2	·
O=C(CCc1ccccc1)N/N=C/c1ccco1
 : 0.7	-1.02
O=C(/C=C/c1ccccc1)OCC(=O)c1ccc(-n2nncc2-c2ccco2)cc1
 : 0.9	·
O=C(OCC1CC1)c1cc2ccccc2o1
 : 1.6	·
C=CCC(C)(NCc1ccccc1)c1ccco1 (stereo not given)
 : -4.1	2.19
CCC(CO)NCC(O)c1ccccc1 (stereo not given)
 : 0.9	·
NC(=O)COc1cccc(-n2cnnn2)c1
 : 4.3	-0.36
O=C(CNc1ccc(F)cc1F)N1CCN(S(=O)(=O)c2ccccc2)CC1
 : 0.7	·
Cc1ccc(CN(C)CC(=O)Nc2c(C(C)C)cccc2C(C)C)o1
 : -0.6	·
CCn1c(COc2ccccc2OC)nnc1SCC(=O)c1c(C)n(C)c2ccccc12
 : 3.2	0.0015
CCc1cccc(N2C(=O)Nc3ccccc3N2O)c1
 : -0.2	-1.11
CC(=O)NC(C)c1ccccc1 (stereo not given)
 : 1.4	·
CCCCOc1nc2ccccc2nc1C(C#N)C(=O)OCC (stereo not given)
 : -11.0	·
CCC1(C)NC(=O)N(NC(=O)Cn2cnc3c2c(=O)n(C)c(=O)n3C)C1=O (stereo not given)
 : 1.5	·
NS(=O)(=O)c1ccc(CNC(=O)c2ccncc2)cc1
 : 1.4	·
CC(=O)NC1=NN(C(C)=O)C(c2ccco2)S1 (stereo not given)
 : 0.2	0.744
NNC(=O)CNC(=O)c1cccc2ccccc12
 : -0.2	0.191
Cn1c(=O)c(C(=O)CSc2nncn2-c2ccccc2)c(N)n(Cc2ccccc2)c1=O
 : -0.2	·
CCN(C(=O)c1cccnc1SCc1c(C)noc1C)c1nc2c(C)cccc2s1
 : 0.9	·
COc1ccccc1N1CCN(CCCNC(=O)CCc2c(C)nc3c(c2C)c(=O)n(C)c(=O)n3C)CC1
 : 0.7	-0.147
CCOC(=O)c1c(N)sc2c(OC)c(Br)ccc12
 : 1.1	0.183
Cc1sc(NC(=O)CN2C(=O)CCC2=O)c(C(N)=O)c1C
 : -1.5	1.56

(further entries)
Under each structure: BasE inh	LANA-nucl inh
Cn1cnnc1Sc1ccc(Cl)cc1NC(=O)CN1C(=O)C2CC=CCC2C1=O (stereo not given)
 : 1.2	·
Cc1ccc(S(=O)(=O)N2CCCC(NC(=O)NCc3ccco3)C2)cc1 (stereo not given)
 : 1.6	0.085
COc1ccc2oc(C(=O)OCC(=O)Nc3ccccc3SCC#N)c(C)c2c1
 : -10.3	·
Cc1ccc(N(C)S(=O)(=O)c2c(C)[nH]c(C)c2C(=O)N2CCCC2)cc1
 : 1.8	0.0675
O=C(c1ccccc1)c1nn(-c2ccc(C(F)(F)F)cc2)ccc1=O
 : 0.0	·
CN(CN1C(=O)c2cc(Cl)c(Cl)cc2C1=O)C1CCCCC1
 : 0.6	·
COc1ccccc1-c1ccc(=O)n(CC(=O)NC(C)(C)C)n1
 : 0.5	-0.915
O=C(NN1C(=O)C2C3c4ccccc4C(c4ccccc43)C2C1=O)C1CC1 (stereo not given)
 : -3.9	0.788
CN1C(=O)C2(c3ccccc31)C(C(=O)N1CCN(c3cccc(C(F)(F)F)c3)CC1)CC1CCCN12 (stereo not given)
 : -0.8	2.17
Nc1cc(=O)[nH]c(SC/C=C/c2ccccc2)n1
 : -2.4	0.114
Nc1cc(=O)[nH]c(SCC(=O)N(c2ccccc2)c2ccccc2)n1
 : -0.1	0.0975
CN(C)c1ccc(C(=O)OCCOc2ccccc2F)cc1
 : 3.1	·
O=c1nc(-c2ccccc2)cc(-c2ccc(Br)cc2)[nH]1
 : 1.7	-0.375
CCCCCCCCCCC/C=C\C(C)(C)/C=C\CCCC(=O)O
 : -2.8	-0.935
COC(=O)c1cc(CN2CCNC(=O)C2)oc1C
 : 0.5	·
CCCN1C(=O)SC(CC(=O)Nc2cccc3ccccc23)C1=O (stereo not given)
 : -3.1	·
O=C(c1ccc(N2CCCc3ccccc32)s1)N1CCCC1
 : 1.9	0.887
Cc1oc2c(F)c(F)c(F)c(F)c2c1C(=O)O
 : 1.3	·
CC(C)CN(CC(C)C)S(=O)(=O)c1cc(Cl)ccc1Cl
 : 3.5	0.502
COc1ccc(-c2nc(SC(C)C(=O)Nc3ccnn3C(C)C)n[nH]2)cc1 (stereo not given)
 : -0.9	·
CC(C)(C)OC(=O)N1CCCC1C(=O)O (stereo not given)
 : 1.7	-0.67
COc1cccc(OC)c1COC(=O)Nc1c(-c2ccccc2Cl)noc1C
 : -1.0	0.878
Cc1ccc(N(C)C(=O)CCS(=O)(=O)c2ccc3c(c2)oc(=O)n3C)cc1
 : -1.9	·
Oc1[nH]c2ccccc2c1C=Nc1ccc(Br)cc1
 : 4.6	-0.463
O=C(/C=C/c1cccs1)Nc1nccs1
 : -1.0	·
CCc1ccccc1NC(=O)Cn1c(=O)n(CC2CCCO2)c(=O)c2ccccc21 (stereo not given)
 : -2.5	1.17
N#Cc1ccc(NC(=O)COC(=O)C23CC4CC(CC(C4)C2)C3)cc1
 : -0.1	·
CCS(=O)(=O)c1ccc2oc(=S)[nH]c2c1
 : 1.2	·
N#Cc1sc2nc3ccccc3n2c1/N=C/N1CCOCC1
 : -6.5	·
CN(C)N1C(N)=C(C#N)C(c2ccccc2)C2=C1CCCC2=O (stereo not given)
 : 1.8	·
Brc1ccc2nc3c(n2c1)CCCC3
 : -1.2	0.0255
O=C(ON(Cc1c(F)cccc1Cl)Cc1c(F)cccc1Cl)c1cccs1
 : ·	-0.324
Cc1ccn(CC(C)C(=O)O)n1 (stereo not given)
 : 1.1	-0.16
CCCCC(=O)Nc1nc(-c2ccccc2)cs1
 : 2.7	0.683
CC1CCCCN1CCNC(=O)CN1C(=O)CCSc2ccccc21 (stereo not given)
 : 0.8	0.579
CC(C)(C)c1ccc(C(=O)COc2ccc(-c3nnco3)cc2)cc1
 : -0.7	·
CC1(CC(=O)N/N=C/c2ccc(C#N)cc2)OCCO1
 : -4.0	1.45
COc1cccc(NC(=O)C(NCCO)c2ccccc2)c1 (stereo not given)
 : 1.9	·
CCCCCSc1nnc2c(n1)OC(CC)N(C(C)=O)c1ccccc1-2 (stereo not given)
 : 0.9	0.453
O=C(CSc1ccc2c(c1)CCC2)N(Cc1nnc(-c2ccc(Cl)cc2)o1)C1CC1
 : 1.6	·

Sorted by the number under LANA-nucl inh (lowest first): three of the compounds above
SMILES,LANA-nucl inh
Brc1ccc2nc3c(n2c1)CCCC3,0.0255
CCCCCSc1nnc2c(n1)OC(CC)N(C(C)=O)c1ccccc1-2 (stereo not given),0.453
CC1(CC(=O)N/N=C/c2ccc(C#N)cc2)OCCO1,1.45

Additional compounds:
Under each structure: BasE inh	LANA-nucl inh
CSc1nc2ccc(NC(=O)/C=C/c3ccc(C)o3)cc2s1
 : 1.0	·
OCCN1CCN(C(=S)c2ccccc2O)CC1
 : -1.0	0.637
CC1CCN(CC(=O)Nc2sc3c(c2C#N)CCCC3)CC1
 : -1.8	0.332
S=C1NCN(Cc2ccccc2)CN1Cc1ccccc1
 : -0.1	·
O=C(NCCc1cn2ccccc2n1)c1ccccc1F
 : 1.0	1.61
O=C(O)C1CCN(c2c(-c3ccccc3)c3cc(Cl)ccc3[nH]c2=O)CC1
 : 2.0	-1.62
CC1=CCC2C(=O)N(c3ccc(C(=O)N4CCCCCC4)cc3)C(=O)C2C1 (stereo not given)
 : -0.6	0.521
COc1cc(C(CC(=O)O)CC(=O)N2CCC(n3cccc3)CC2)cc(OC)c1OC (stereo not given)
 : -2.5	·
CC(OC(=O)C1=NNC(=O)CC1)C(=O)Nc1nc(-c2ccccc2)cs1 (stereo not given)
 : -1.4	·
O=C(Cn1nnc(-c2ccccc2)n1)OCc1ccccc1
 : 1.3	·

Arranged by SMILES length (descending): some entries from above
Under each structure: BasE inh	LANA-nucl inh
CC1=CCC2C(=O)N(c3ccc(C(=O)N4CCCCCC4)cc3)C(=O)C2C1 (stereo not given)
 : -0.6	0.521
CSc1nc2ccc(NC(=O)/C=C/c3ccc(C)o3)cc2s1
 : 1.0	·
O=C(NCCc1cn2ccccc2n1)c1ccccc1F
 : 1.0	1.61

(listing goes on)
Under each structure: BasE inh	LANA-nucl inh
COc1ccc2c(c1)C(SCC(=O)NC1CC1)CC(C)(C)O2 (stereo not given)
 : -0.8	0.253
O=c1[nH]nc(SCc2cccc3nsnc23)n1-c1ccccc1
 : 0.9	-0.523
N#Cc1cccnc1NNC(=O)c1ccccc1C(=O)O
 : 5.2	0.298
COc1ccc(CCNC2CC(=O)N(C)C2=O)cc1OC (stereo not given)
 : -0.3	1.1
C/C(=N\OCc1nc2c3c4c(sc3ncn2n1)CCCC4)c1cccs1
 : 0.7	0.003
C=CCn1c(=O)c(C(=O)Nc2cccc(O)c2)c(O)c2ccccc21
 : 1.0	·
CC(C)CNS(=O)(=O)c1ccccc1
 : -0.3	1.24
O=C(C1CCC1)N1CCc2cc(S(=O)(=O)NCCCN3CCN(Cc4ccccc4)CC3)ccc21
 : 1.6	-0.0225
O=C(NCc1ccc2c(c1)OCO2)c1ccc(S(=O)(=O)N2CCCC2)cc1
 : -2.8	0.835
